Screening data from PubChem.
HCMV UL50-53 inh – inhibitors of HCMV UL50-UL53 nuclear egress complex interaction; 0.15% of 190,000 active; HTRF UL50-UL53 interaction, normalized percent inhibition; inhibition, % (no concentration beside the values);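 active = both replicates at 50% or more, plus weaker picks with an unusually low signal ratio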;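 note: stock transfer was 100 nL into about 20 µL; 0% = negative control wells and 100% = wells with untagged competitor protein; inactives centre near -12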
GIV Gai3 FP – GIV-Galpha-i interaction inhibition | P08753 | Galpha-i3/FITC-GIV peptide fluorescence polarization, 90 min; active compounds read low; scaled: aluminum fluoride 0%, vehicle 100% | percent of control (FP), % (test concentration not listed) | 0.42% of 210,000 active | AID 1224905;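 active = replicate mean at 85% of control or lower, very high polarization wells dropped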;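 note: lower values mean more displacement of the GIV peptide from Galpha-i3; wells of about 15 µL received 100 nL stock; the first replicate is given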
Target sequence (P08753 whole entry, looked up): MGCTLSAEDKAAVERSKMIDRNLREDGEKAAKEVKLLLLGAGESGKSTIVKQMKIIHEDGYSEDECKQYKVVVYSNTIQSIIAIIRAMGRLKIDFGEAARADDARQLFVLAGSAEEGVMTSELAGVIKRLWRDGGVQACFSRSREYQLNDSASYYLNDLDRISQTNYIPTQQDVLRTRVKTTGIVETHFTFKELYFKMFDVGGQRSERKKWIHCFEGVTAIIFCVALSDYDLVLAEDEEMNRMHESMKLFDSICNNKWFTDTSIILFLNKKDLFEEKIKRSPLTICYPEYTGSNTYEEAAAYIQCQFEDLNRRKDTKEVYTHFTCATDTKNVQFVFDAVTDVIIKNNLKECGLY
Sa growth inh – blocks Staphylococcus aureus growth. relative growth, % (concentration not given with the values). AID 720641. S. aureus RN4220 growth, OD600, 20 h, 42 °C; active compounds read low. 0.53% of 170,000 active;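 active = growth at 42 °C up to 50% and 20 or more points under that at 30 °C, or under 10% at both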;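 note: 300 nL library stock went into each well; scaled to the means of positive and negative controls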
Sa growth inh second temp – recorded beside Sa growth inh, whose call it bears; relative growth, %; measured here: growth at 30 °C;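 optical density after 20 h as mean of two plates; 100% = untreated growth and lower means inhibition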
An asterisk follows results filed as active; . = not tested or not shown.

compound	HCMV UL50-53 inh	GIV Gai3 FP	Sa growth inh	Sa growth inh second temp
COC(=O)c1cn(NC(=O)c2cccc(OC)c2)c(=O)c2ccccc12	.	99	92	90
COc1ccc(CN2C(=O)C(NC(=O)c3ccc(C)cc3)(C(F)(F)F)N=C2c2ccccc2)cc1 (stereo unspecified)	-9	104	87	86
CC(O)CNc1ncnc2sccc12 (stereo unspecified)	-13	.	84	78
CC1=CC(C)(C)N(CN2C(=O)c3ccccc3C2=O)c2cc(C)ccc21	-14	103	100	115
COc1ccc(-c2onc(C)c2C)cc1S(=O)(=O)NCc1ccc(C)o1	.	103	92	85
CC1CCCC(C)N1/N=C/c1ccccc1F (stereo unspecified)	5	.	113	87
Cc1ccc(-c2nc(Nc3nc(C)cc(C)n3)n[nH]2)cc1	-5	101	94	93
O=C(O)c1ccc2c(c1)OCCO2	-4	107	.	.
CCc1ccc(S(=O)(=O)c2nnn3c2nc(NCCC(C)C)c2cc(Cl)ccc23)cc1	-18	100	98	85
C/C(CCc1ccc2c(c1)OCO2)=N\NC=O	-4	.	95	85
CN(C)c1ccc(C(=O)c2ccccc2)cc1	-51	98	92	80
COC(=O)c1cc2occc2n1Cc1nc(-c2ccccc2F)oc1C	-36	101	111	89
COCCNC(=O)C(=O)NCC(c1cccnc1)N1CCN(c2ccccc2F)CC1 (stereo unspecified)	-20	105	110	88
Cc1ccc(Cl)cc1NC(=O)CN(C)S(=O)(=O)c1c[nH]c(C(=O)N2CCCC2)c1	-17	100	.	.
CCCCn1c(SCC(=O)c2ccc3c(c2)NC(=O)CO3)nc2cc(S(N)(=O)=O)ccc21	-13	.	109	81
O=C1CC(c2ccc(F)cc2)c2c(-c3ccccc3)nn(-c3ccccc3)c2N1 (stereo unspecified)	-14	105	.	.
CN1CCN(c2nc(-c3ccc[nH]3)cs2)CC1	-42	.	125	90
O=C1CC(c2ccccc2)CC(O)=C1C=NCCN1CCN(C2OC(=O)c3ccccc32)CC1 (stereo unspecified)	.	106	103	86
CCCn1c(=NC(=O)c2c(-c3c(F)cccc3Cl)noc2C)c(C(=O)OCC)cc2c(=O)n3ccccc3nc21	0	103	108	103
CN1CC(c2ccccc2)OC1=O (stereo unspecified)	12	105	114	104
CCS(=O)(=O)N1CCN(c2cc(C(F)(F)F)ccn2)CC1	0	100	104	89
O=C(O)c1ccc(-c2ccccc2F)cc1	-2	100	109	78
CCCN1CCN(c2ncnc3sc(C(=O)N4CCCC4)c(C)c23)CC1	-10	107	.	.
Cc1ccc(C)c(-c2nnc(NC(=O)/C=C/c3cccs3)o2)c1	-28	106	40	38
CCN(CC)C(=O)c1sc(NC(=S)N(C)Cc2cn(CC)nc2C)c(C(=O)OC)c1C	8	100	0.8*	0.5*
CC(SC1=N/C(=C\c2ccco2)C(=O)N1c1ccc(OC(F)F)cc1)C(=O)N1CCc2ccccc21 (stereo unspecified)	-31	.	99	97
COc1ccccc1NC(=O)N1c2ccccc2Sc2ccccc21	-15	103	97	90
Cn1cccc1C(=O)OCC(=O)Nc1cc(C(C)(C)C)nn1-c1ccccc1	15	.	98	94
Cc1oc(-c2ccc(Cl)cc2)cc1CO	-12	100	89	70
Cc1ccc(Sc2ccc(=O)n(-c3ccc(C(=O)N4CCN(c5ccccn5)CC4)cc3)n2)cc1	-88	101	.	.
Cc1cccc(NC(=O)Cn2c(=O)n(Cc3nc(-c4ccccc4)no3)c(=O)c3ccccc32)c1	.	106	88	92
CCOC(=O)c1c(C)n(-c2ccc(N(C)C)cc2)c2ccc(OC)cc12	-23	.	106	87
C/C(=N\NC(=O)C1CCN(S(=O)(=O)c2ccccc2)CC1)c1ccccc1	-22	104	90	88
Cc1cc(C)c(S(=O)(=O)Nc2ccc(N3CCN(C)CC3)c(C(=O)O)c2)c(C)c1	-29	103	.	.
COCCn1c(CCC(=O)Nc2ccc(C)c(Cl)c2)nc2cccnc21	-2	103	109	98
Brc1cc2c(cc1CSc1nnc(C3CC3)n1C1CC1)OCCO2	-12	.	106	93
Cc1ccn(CN2CCN(Cn3ccc(C)n3)C2=S)n1	.	99	81	92
O=C(NCCCN1CCCC1=O)Nc1cnc2ccccn2c1=O	-96	93	99	87
Nc1nnc(CC(=O)c2ccccc2)c(=O)[nH]1	-38	.	107	87
N#Cc1c(Cl)cccc1NCc1ccc(Cl)cc1	-5	100	98	103
CCCCCn1c(CCCNC(=O)c2ccc(Cl)cc2)nc2ccccc21	-2	98	98	91
O=C(O)c1ccccc1Cn1ccnc1	14	106	101	99
CCCSc1ncccc1C(=O)Nc1c(C)noc1C	44	106	114	88
COc1ccc(OCCn2cc(C=C3C(=O)N(C)C(=O)N(C)C3=O)c3ccccc32)cc1	.	105	103	87
Cn1cc(S(=O)(=O)N2CCCCC2)cc1C(=O)Nc1cccc(F)c1	-10	107	.	.
CN1C(=O)/C(=c2\sc3nc(-c4ccccc4)nn3c2=O)c2ccccc21	-8	.	82	100
Cn1c(=O)c2cn(C(C)(C)C)cc2n(C)c1=O	-4	101	100	93
O=C(Nc1ccc(S(=O)(=O)Nc2nccs2)cc1)C1CCCO1 (stereo unspecified)	-2	.	61	80
Oc1ccc(C=NCC2COc3ccccc3O2)cc1 (stereo unspecified)	-29	98	86	85
O=S(=O)([N-]c1nc2ccccc2nc1-[n+]1ccccc1)c1ccccc1	-47	.	107	93
Cc1[nH]c2ccccc2c1/C=N/NC(=O)Cc1nc2sc(C)c(C)c2c(=O)[nH]1	3	.	111	92
O=C(CSc1ccc(-c2ccco2)nn1)N1CCCC1	.	98	86	82
Cc1ccc(N2CCN(C(=O)c3sc4nc(C)nc(N5CCOCC5)c4c3C)CC2C)cc1 (stereo unspecified)	-6	108	.	.
O=C(C1CCCN(S(=O)(=O)c2ccc(Cl)cc2)C1)N1CCCC1 (stereo unspecified)	-10	104	102	77
Cc1c(C(=O)N2CCN(c3ccccc3)CC2)oc2cc3sc(N(C)C)nc3cc12	-32	104	.	.
Cc1ccc(C(=O)NCc2ccco2)o1	-2	.	112	90
O=C1NC2CCCCC2NC1CC(=O)N1CCN(Cc2ccccc2)CC1 (stereo unspecified)	-17	102	97	97
COc1ccc2nc(C)cc(NCCN3CCOCC3)c2c1	-24	.	102	92
Cc1cc(C(=O)N2CC=C(c3ccccc3)CC2)n[nH]1	-8	101	.	.
O=C1c2ccccc2C(=O)N1CC(=O)n1nc(-c2cccnc2)nc1NCc1cccs1	-24	104	96	81

Next records.
compound	HCMV UL50-53 inh	GIV Gai3 FP	Sa growth inh	Sa growth inh second temp
COC(=O)C1=C(O)c2ccccc2S(=O)(=O)N1C	-8	.	63	49
CCCCOc1ccc(C2=NC(c3ccncc3)=Nc3ccc(OCC)cc3N2)cc1	-12	97	100	96
CCc1ccccc1NS(=O)(=O)c1ccc2c(c1)CC(=O)N2	1	108	79	86
COc1ccc(N2C(=O)CSC23C(=O)N(CC(=O)NC2CCCCC2)c2ccccc23)cc1 (stereo unspecified)	.	109	122	90
O=C(Oc1cc(Cl)cc(Cl)c1)c1ccccc1F	-16	97	110	92
O=C(O)c1cc2c([nH]c1=O)CCCC2	-19	101	115	92
CCC(C)NS(=O)(=O)c1ccc2c(c1)N(C(C)=O)CCS2 (stereo unspecified)	-12	109	.	.
COc1cccc(-c2noc(-c3ccccc3C)n2)c1	-19	106	93	95
Cn1c(=O)c(=O)n(C)c2cc(S(=O)(=O)CCC(=O)N3CCCCC3)ccc21	2	105	97	93
COc1ccc(C)cc1NC(=O)Nc1cccc(OCc2cc(=O)n3ccc(C)cc3n2)c1	.	93	86	89
CC(=O)Nc1ccc(NC(=O)CNC2CCC(C)CC2)cc1 (stereo unspecified)	2	.	88	97
Cc1noc2ncn(CC(=O)NCCc3ccccc3)c(=O)c12	-6	96	86	92
CCn1nc(C)c2c1c(=O)n(Cc1ccccc1)c(=O)n2Cc1cc(C)ccc1C	1	99	.	.
CC(O)CCc1nc2ccc(C(=O)O)cc2[nH]1 (stereo unspecified)	-19	100	94	89
COc1ccc(CNC(=O)c2ccc3cnn(Cc4cccc(Cl)c4)c3c2)c(OC)c1	-28	109	.	.
OC1CCN(C(=S)NC2CCCC2)CC1	7	109	92	97
Cc1[nH]c(=S)n(C2CCCCC2)c1C	-9	.	121	98
COC(=O)c1c(C)oc(C)c1S(=O)(=O)N1CCCCC1	-20	106	97	81
O=C(O)c1c(C(F)(F)F)cc[nH]c1=O	-6	109	114	91
COc1ccccc1-c1nnc(C2CCN(S(=O)(=O)c3ccccc3)CC2)o1	-35	105	102	89
c1cncc(CNc2ccc(-c3nc4ncccc4o3)cc2)c1	.	101	100	93
CN1CCN(NC(NC(=O)c2cccnc2)(C(F)(F)F)C(F)(F)F)CC1	14	106	98	95
CC(C)C(=O)N1CCC2(CC1)Nc1ccc(Cl)cc1-n1cccc12	-18	104	.	.
CSc1ncccc1C1=N/C(=C\c2ccc(C(F)(F)F)cc2)C(=O)O1	-8	110	102	100
CCn1c(SCc2c(C)noc2C)nc2cc(S(=O)(=O)N3CCOCC3)ccc21	-13	.	64	94
CC(=O)Oc1ccccc1C(=O)Nc1ccc(C(N)=O)cc1	-24	.	103	87
O=S(=O)(c1ccc(=S)[nH]c1)N1CCCCCC1	-12	.	90	52
Cc1ccccc1CNC(=O)Cn1c(C)c2cnn(-c3ccccc3)c(=O)c2c1C	-35	104	104	86
CC(C)n1c(=O)c(=O)[nH]c2cc(-c3noc(Cc4ccccc4Br)n3)ccc21	-13	98	.	.
CCOc1ccccc1NC(=O)c1[nH]c(C)c(S(=O)(=O)N2CCCC2)c1C	-25	107	.	.

Grouped by structure: the entries above containing a thiophene ring, fused or not
compound	HCMV UL50-53 inh	GIV Gai3 FP	Sa growth inh	Sa growth inh second temp
CC(O)CNc1ncnc2sccc12 (stereo unspecified)	-13	.	84	78
CCCN1CCN(c2ncnc3sc(C(=O)N4CCCC4)c(C)c23)CC1	-10	107	.	.
Cc1ccc(C)c(-c2nnc(NC(=O)/C=C/c3cccs3)o2)c1	-28	106	40	38
CCN(CC)C(=O)c1sc(NC(=S)N(C)Cc2cn(CC)nc2C)c(C(=O)OC)c1C	8	100	0.8*	0.5*
Cc1[nH]c2ccccc2c1/C=N/NC(=O)Cc1nc2sc(C)c(C)c2c(=O)[nH]1	3	.	111	92
Cc1ccc(N2CCN(C(=O)c3sc4nc(C)nc(N5CCOCC5)c4c3C)CC2C)cc1 (stereo unspecified)	-6	108	.	.
O=C1c2ccccc2C(=O)N1CC(=O)n1nc(-c2cccnc2)nc1NCc1cccs1	-24	104	96	81

More records:
compound	HCMV UL50-53 inh	GIV Gai3 FP	Sa growth inh	Sa growth inh second temp
COc1cccc2c(C)cc(N3CCCCC3)nc12	-10	105	100	92
CN1C(=O)SC(Nc2ccccc2)C1=O (stereo unspecified)	3	98	90	65
Cc1cccc(C)c1N1C(=O)CSCC1=O	-22	104	88	91
O=C(CCC1CCCC1)Nc1ccc(-c2cn3cccnc3n2)cc1	-9	98	81	85
CCOc1ccc(CNC(=O)C2CCN(c3nc4ccccc4nc3C(F)(F)F)CC2)cc1OC	.	96	93	87
Cc1ccc(CNC(=O)c2ccc3c(c2)nc(C)n3-c2cccc(F)c2)cc1	.	100	71	50
CCN1CCN(C(=O)c2ccc3c(c2)N(Cc2cccc(Cl)c2)C(=O)c2ccccc2S3(=O)=O)CC1	.	102	106	77
COC(=O)C1=C(C)NC2=C(C(=O)CCC2)C1c1c[nH]c2ccccc12 (stereo unspecified)	-38	99	85	89
CC(=O)Nc1cccc(C(=O)N(CCC(=O)N2CCNCC2)C(C)C)c1	14	106	.	.
O=C(Cn1c(-c2ccccn2)nc2ccccc21)NCCc1ccccc1	1	100	97	88
CC(C)(C)NS(=O)(=O)c1ccc2oc3ccc(S(=O)(=O)NC(C)(C)C)cc3c2c1	-18	104	95	76
